Screening data (PubChem BioAssay)
Cruzain noTriton – qHTS Assay for Promiscuous and Specific Inhibitors of Cruzain (without detergent); Cruzipain (Trypanosoma cruzi), P25779; purified cruzain, Z-FR-AMC fluorescence, no detergent; Potency, µM, inactives show max response, negative = inhibition, most hits filed as inhibitors; actives 2.3% (n = 200,000);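 note: plate controls were enzyme without inhibitor for no effect and buffer without enzyme for full effect; nearly all actives have a fitted effect of over 40% in size; top concentration of the series not given in the record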
Target sequence (P25779 123-467 limits assumed): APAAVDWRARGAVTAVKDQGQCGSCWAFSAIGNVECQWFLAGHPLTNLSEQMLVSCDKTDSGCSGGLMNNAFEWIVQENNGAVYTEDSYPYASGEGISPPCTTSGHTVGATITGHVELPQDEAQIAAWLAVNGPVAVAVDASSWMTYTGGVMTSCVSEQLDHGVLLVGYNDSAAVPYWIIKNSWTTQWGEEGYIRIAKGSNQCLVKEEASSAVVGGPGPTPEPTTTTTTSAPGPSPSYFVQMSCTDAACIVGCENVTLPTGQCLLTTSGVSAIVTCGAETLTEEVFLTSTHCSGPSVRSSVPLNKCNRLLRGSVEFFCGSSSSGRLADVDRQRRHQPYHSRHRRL
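Purified cruzain at 1.5 nM, pre-incubated 15 min with compound at room temperature in 100 mM sodium acetate pH 5.5, 5 mM DTT, 0.00005% Triton X-100. Reaction started with 2 uM Z-FR-AMC; AMC fluorescence increase over 60 s gives rate.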
StopGo reporter – High Throughput Screening for Foot and Mouth Disease Virus Antivirals; human cells with a luciferase reporter of 2A StopGo recoding; control for the full effect not named in the record; Potency, µM (titrated, usually from 57.9 µM), inactives show top-dose signal change, negative = less light; actives 1.2% (n = 410,000); active = well fitted falling curve with a large enough effect; inconclusive = small, poorly fitted or top-dose-only effect; inactive = no such curve, though single readings can be large or run the other way; tested in HEK293T cells; note: % is set by controls: 0 for no effect and ±100 for the full control effect; nearly all actives have a fitted effect of over 45% in size; luciferase light after 4 h
Marburg entry inh – qHTS for inhibitors of binding or entry into cells for Marburg Virus | Marburg virus pseudotyped entry inhibition, cell reporter; control for the full effect not named in the record; about a third of the inactives were read at about 46 µM | actives 1.8% (n = 300,000) | Potency, µM (highest dose often 37.8 µM), without a hit: at the top dose activity change, negative = inhibition, usual class: inhibitors | AID 540276, 2011; active = well fitted inhibition curve with a large enough effect; inconclusive = small, poorly fitted or top-dose-only effect, or effect the other way; inactive = flat fitted curve, though single readings scatter; tested in HEK293 cells; about a fifth of its hits are not listed in these tables; note: % is set by controls: 0 for no effect and ±100 for the full control effect; luciferase read-out
RE007 growth inh – qHTS Assay for Inhibitors of the HIV-1 protein Vpr; S. pombe RE007 Vpr strain, BacTiter-Glo ATP luminescence, 24 h; control for the full effect not named in the record; Potency, µM (titrated, usually from 92.2 µM), for inactives: at the highest dose activity change, negative = less growth; actives 0.21% (n = 360,000); active = well fitted falling curve with a large enough effect; inconclusive = small, poorly fitted or top-dose-only effect; inactive = no such curve, though single readings can be large or run the other way;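 note: % is set by controls: 0 for no effect and ±100 for the full control effect; nearly all actives have a fitted effect of over 50% in size; the assay follows cell death caused by Vpr and the record does not say whether a fall means rescue or toxicity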
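Fission yeast strain RE007, carrying one chromosomally integrated HIV-1 vpr copy, was seeded at OD 0.01 in PMG+AL medium with 23 nL pinned compound. After 24 h at 30 °C and 99% humidity, viability was read by BacTiter-Glo luminescence.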
NS1 inh – qHTS Assay for Inhibitors of Influenza NS1 Protein Function. S. cerevisiae slowed by influenza A NS1, growth recovery by OD600. Potency, µM (top dose mostly 46.1 µM), for the others: at the top dose activity, positive = more growth. AID 2326, 2010. actives 0.4% (n = 270,000); active means well fitted rising curve with a large enough effect; inconclusive means small, poorly fitted or top-dose-only effect; inactive means no such curve, though single readings can be large or run the other way; note: nearly all actives have a fitted effect of over 50% in size
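A cell-based growth assay was used: compounds that relieve NS1-induced slow growth of budding yeast raise OD600. Assay medium was yeast nitrogen base with ammonium sulphate and -URA supplement, pH 6.0, with 2% galactose.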
Cruzain inh Det – qHTS Assay for Promiscuous and Specific Inhibitors of Cruzain (with detergent) | Cruzipain (Trypanosoma cruzi), P25779 | purified cruzain, Z-FR-AMC fluorescence, 0.01% Triton | Potency, µM, for inactives: max response, negative = inhibition, actives largely listed as inhibitors | actives 0.43% (n = 200,000) | AID 1478, 2009;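 note: plate controls were neutral wells for no effect and buffer without enzyme for full effect; nearly all actives have a fitted effect of over 40% in size; top concentration of the series not given in the record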
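Steps: dispense cruzain (1.5 nM final) in acetate buffer pH 5.5 with DTT and 0.01% Triton X-100; pin-transfer compounds; incubate 15 min RT; add Z-FR-AMC (2 uM final); read fluorescence every 30 s, using the 60 s intensity change.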
Lassa entry inh – qHTS for Inhibitors of binding or entry into cells for Lassa Virus; Lassa virus pseudotype entry inhibition, cell reporter; control for the full effect not named in the record; Potency, µM (doses to about 37.9 µM), for inactives: at the highest dose activity change, negative = inhibition, most hits filed as inhibitors; actives 1.2% (n = 300,000); active means well fitted inhibition curve with a large enough effect; inconclusive means small, poorly fitted or top-dose-only effect, or effect the other way; inactive means flat fitted curve, though single readings scatter; tested in HEK293 cells; note: % is set by controls: 0 for no effect and ±100 for the full control effect; nearly all actives have a fitted effect of over 50% in size; luciferase read-out
SARS PLP yeast – qHTS of Yeast-based Assay for SARS-CoV PLP | S. cerevisiae expressing SARS-CoV PLpro, growth rescue; control for the full effect not named in the record | Potency, µM (top dose mostly 32.9 µM), inactives show top-dose activity, positive = growth rescue | actives 0.19% (n = 330,000) | AID 485353, 2010; active means well fitted rising curve with a large enough effect; inconclusive means small, poorly fitted or top-dose-only effect; inactive means no such curve, though single readings can be large or run the other way; note: 0% is about no effect; nearly all actives have a fitted effect of over 55% in size; growth read by luminescence after 48 h
Starred values were filed as active, the others as inactive; u = inconclusive; x = not tested or not shown; & = joins results of further samples; [ ] = dose if it differs, or a comment. Unless noted, calls come from the whole dose curve; as a rule, active = well fitted curve in the direction sought with a large enough effect; inconclusive = small, poorly fitted or top-dose-only effect, or another doubt; inactive = no such curve, though single readings can be large; an effect the other way counts as inactive or inconclusive. Potency is the fitted concentration of half-maximal effect.

SMILES	Cruzain noTriton	StopGo reporter	Marburg entry inh	RE007 growth inh	NS1 inh	Cruzain inh Det	Lassa entry inh	SARS PLP yeast
O=S(=O)(NC1CCc2ccccc21)c1ccc(S(=O)(=O)N2CCCC2)cc1 (stereo unspecified)	2.3%	x	u	-1.5%	2.8%	-4.2%	u	14.3%
Cc1cccc(C(=O)NCC(=O)OCc2cc(=O)n3nc(CC(C)C)sc3n2)c1	4.8%	-22.2%	x	x	x	-3.5%	1.3%[46.1 µM]	x
CC(C)CCNC(=O)c1ccc(Cn2c(SCC(=O)NC(C)C)nc3ccccc3c2=O)cc1	-1.2%	-19.7%	x	x	x	0.2%	u	x
Cc1nnc(NC(=O)c2c(-c3ccccc3)noc2C)s1	-4.9%	-10.2%	-2.9%	11.2%	-8.4%	3.4%	11.6%	-7.3%
Cn1c(SCC(=O)Nc2ccc(NC(=O)c3cccs3)cc2)nnc1-c1ccncc1	13.2%	25.0%	16.5%[46.1 µM]	-3.7%	8.6%	-3.8%	1.9%	0.5%
Cc1cc(S(=O)(=O)N2CCCC2)ccc1OCC(=O)NCc1ccco1	0.6%	x	1.0%	-3.7%	-6.1%	3.4%	4.4%	3.8%
O=C(NC1CCCCC1)N1CCN(c2ncccn2)CC1	-0.7%	-15.1%	17.0%	-2.0%	-7.2%	-2.2%	13.2%	-5.5%
Cc1cccc(C(=O)NC(C(=O)Nc2ccc(S(=O)(=O)Nc3nccs3)cc2)C(C)C)c1 (stereo unspecified)	x	19.1%	-9.0%	5.3%	x	x	3.9%	x
Cc1ccc(C(=O)Nc2cccc(S(=O)(=O)N3CCOCC3)c2)cc1[N+](=O)[O-]	x	-3.9%	x	10.3%	0.3%	x	x	0.0%
COCc1cc(C)nc(SCC(=O)Nc2cc3c(cc2C#N)OCO3)c1C#N	-0.1%	1.7%	-16.3%	6.2%	u	2.1%	1.6%	0.1%
COc1ccc(OC)c(CNC(=O)c2nn(C)c3c2CS(=O)(=O)c2ccccc2-3)c1	9.1%	-19.7%&-14.1%	x	18.3%	12.4%	0.3%	4.8%[46.1 µM]	9.3%
O=CNc1ccc2c(c1)Cc1cc([N+](=O)[O-])ccc1-2	x	17.3%	u	-28.3%	x	x	-0.7%	x
CCCN(CCC)S(=O)(=O)c1ccc(NC(=O)COc2ccccc2)cc1	4.5%	17.9%	u	4.4%	-49.9%	-12.9%	-26.1%	-8.3%
CCN(C(=O)COC(=O)c1ccccc1SCC(=O)N1CCCC1)C1CCS(=O)(=O)C1 (stereo unspecified)	x	10.3%	30.6%	1.1%	x	x	17.3%	1.0%
CCOCCCn1c(SCC(=O)NCc2ccc3c(c2)OCO3)nc2ccccc2c1=O	x	-18.0%	-9.5%[46.1 µM]	13.0%	4.5%	x	13.6%[46.1 µM]	1.3%
CC(=O)Nc1ccc(NC(=O)CN(c2cc(Cl)ccc2Cl)S(C)(=O)=O)cc1	x	-9.1%	x	3.0%	4.2%	x	x	-0.1%
COC(=O)C(Cc1ccc(O)cc1)NC(=O)CCc1ccco1 (stereo unspecified)	x	2.1%	3.6%	-2.4%	2.4%	x	15.1%	0.7%
COc1cccc(NC(=O)CSC2=Nc3ccccc3C3=NC(CC(=O)NCc4cccs4)C(=O)N23)c1 (stereo unspecified)	12.1%	-28.4%	x	x	x	-0.5%	10.3%[46.1 µM]	x
CN(Cc1nc2ccccc2c(=O)[nH]1)C(=O)C1CC(=O)N(c2cccc3ccccc23)C1 (stereo unspecified)	x	-1.4%	u	-17.9%	x	x	-2.7%[46.1 µM]	3.6%
Cc1cc(C)nc(N2CCC(C(=O)NCCc3ccc(Cl)cc3)CC2)n1	x	-19.0%	x	-9.4%	5.9%	x	x	-0.2%
COc1ccc(C(CNC(=O)CCNC(=O)c2ccccc2OC)N2CCCC2)cc1 (stereo unspecified)	x	-11.6%	-7.4%	-27.8%	x	x	19.0%	1.1%
O=C1c2ccccc2CC1Sc1nnc(-c2ccccn2)o1 (stereo unspecified)	-21.7%	66.5%[activator]	u	9.9%	-11.2%	-5.4%	u	3.5%
CCOP(=O)(OCC)c1cccc(P(=O)(c2ccccc2)c2ccccc2)c1O	x	-7.8%	15.6%[46.1 µM]	1.9%	6.0%	x	-9.1%[46.1 µM]	2.8%
COC(=O)c1ccc(NC(=O)C2CCCN2C(=O)OCc2ccccc2)cc1 (stereo unspecified)	x	u	x	6.5%	-6.5%	x	x	2.6%
COc1cccc2c1Oc1ncccc1N(c1ccc(C(=O)NCc3cccc(C)c3)s1)C2	-16.2%	0.0%	x	x	x	-3.8%	-28.7%[46.1 µM]	x
O=C(c1cc(-c2ccccc2O)on1)N1CCOCC1	x	6.6%	-8.3%[46.1 µM]	-9.4%	0.5%	x	-9.8%	4.6%
COC(=O)C1(C(C[N+](=O)[O-])c2ccco2)C(=O)NCC1c1ccccc1 (stereo unspecified)	x	10.0%	0.9%[46.1 µM]	-0.8%	0.7%	x	-6.0%	0.0%
Cn1cc(C(=O)NCCc2ccc(Cl)cc2)c(=O)c2cc(S(=O)(=O)N3CCOCC3)ccc21	-8.4%	-2.1%	2.8%[46.1 µM]	x	x	-0.4%	21.7%[46.1 µM]	x
CCOc1c(OC(C)=O)ccc(/C=C2\N=C(SCC)SC2=O)c1[N+](=O)[O-]	-1.9%	-17.0%	10.5%[46.1 µM]	u	-68.8%	-18.0%	4.5%	-18.3%
C/C(=N\N=C1\NC(=O)C(CC(=O)NCc2ccccc2)S1)C(C)C (stereo unspecified)	x	-7.6%	-14.6%[46.1 µM]	7.2%	x	x	10.6%	-6.8%
Cc1c([N+](=O)[O-])cc(S(=O)(=O)Nc2ccc(-c3ccc(N4CCCC4)nn3)cc2)cc1[N+](=O)[O-]	x	78.8%[activator]	19.6%	-15.0%	x	x	5.6%	1.3%
COc1cc(C(=O)Nc2ccc3c(c2)OCO3)ccc1OCc1c(C)noc1C	x	-5.8%	-16.1%[46.1 µM]	7.3%	3.9%	x	1.5%[46.1 µM]	2.2%
Cc1cc(C(=O)CN2C(=O)C(=O)N(Cc3ccccc3)C2=O)c(C)n1CC1COc2ccccc2O1 (stereo unspecified)	x	0.0%	u	-5.9%	x	x	-28.1%	-1.0%
Cc1c(C(=O)O)[nH]c2c1C(=O)CC(c1ccc(C(C)(C)C)cc1)C2 (stereo unspecified)	x	46.2%[activator]	x	14.2%	-0.1%	x	x	0.2%
Nc1nc(CSc2nnc(-c3cccc(F)c3)n2-c2ccccc2)nc(N2CCOCC2)n1	2.0%	2.0%	0.1%&-2.5%	11.7%	11.7%	3.4%	2.8%&-6.9%	-16.1%
Cc1ccc(NC(=O)CN(C)C(=O)c2cc3ccccc3o2)cc1	x	-13.2%	6.4%[46.1 µM]	-6.4%	x	x	10.5%[46.1 µM]	0.2%
COCCN(CCOC)C(=O)c1ccc(CSc2nc3ccccc3s2)cc1	x	-27.3%	u	15.4%	4.4%	x	u	-6.7%
CC(=O)Nc1sc(C)c(C)c1C(=O)OCC(=O)Nc1ccc(S(N)(=O)=O)cc1	x	-19.9%	-10.1%	-11.8%	x	x	1.3%	1.2%
Cc1ccc(S(=O)(=O)CCC(=O)NC2CCCC2)cc1	x	12.5%	11.7%[46.1 µM]	-6.6%	10.5%	x	3.4%[46.1 µM]	-3.3%
O=C(Nc1ccccc1)Nc1snnc1C(=O)Nc1cccc(O)c1	x	-0.5%	u	2.6%	x	x	2.1%	-2.2%
O=c1[nH]c(CSc2ncc(C(F)(F)F)cc2Cl)nc2cc(C(F)(F)F)ccc12	x	-9.2%	-6.2%[46.1 µM]	8.5%	4.9%	x	5.2%	0.1%
O=C(CN1CCCCCC1)N1c2ccccc2C=Cc2ccccc21	-3.2%	-11.1%	u	-3.7%	2.8%	2.7%	-0.9%	-4.5%
COc1cc(OC)c(/C=N/n2c(C)nnc2C)c(OC)c1	4.1%	-9.1%	u	-14.5%	9.2%	-5.1%	-15.4%	-14.4%
Cc1ccc(C)c(CSCC(=O)NCc2cccs2)c1	x	-7.0%	u	-0.4%	-4.5%	x	-10.1%[46.1 µM]	-6.0%
Cc1ccc(NC(=O)CCS(=O)(=O)c2cc3c4c(c2)CCN4C(=O)CC3)c(C)c1	20.3%	-14.3%	x	x	x	1.9%	0.7%[46.1 µM]	x
O/N=C/c1cc(Cl)ccc1OCc1cccc2ccccc12	-26.7%	x	0.7%	x	-153.6%	-0.4%	x	-31.0%
COc1cccc(CNC(=O)C(=O)NCC(c2cccs2)S(=O)(=O)c2cccs2)c1 (stereo unspecified)	6.8%	u	x	x	x	-2.2%	-13.2%[46.1 µM]	x
COCCNC(=O)c1ccc(CS(=O)(=O)c2ccc(Cl)cc2)o1	4.9%	-5.1%	8.7%	-3.7%	2.1%	5.7%	10.1%	-1.0%
O=C(NC1CCCC1)C(c1ccncc1)N(C(=O)c1csnn1)c1ccc(F)c(Cl)c1 (stereo unspecified)	x	-8.7%	u	8.7%	-11.7%	x	0.7%	-21.3%
CC(C)CCn1c(=O)c2ccccc2n2c(CN3CCCC3)nnc12	x	-2.1%	16.5%[46.1 µM]	-3.1%	x	x	3.0%[46.1 µM]	-1.1%
COc1cccc(N2CCN(S(=O)(=O)c3cccc4nsnc34)CC2)c1	x	4.6%	u	12.5%	x	x	u	-4.0%
